Screening results from PubChem BioAssay.
ClpP mod: qHTS Assay for Activators of ClpP | ATP-dependent Clp protease proteolytic subunit (Bacillus subtilis (strain 168)), P80244 | purified B. subtilis ClpP, FRET peptide cleavage, 20 min | Potency, µM (series often up to 57.5 µM), for inactives: at the top dose activity change, negative = active | 340,000 tested, 1.9% active; active = well fitted falling curve with a large enough effect; inconclusive = small, poorly fitted or top-dose-only effect; inactive = no such curve, though single readings can be large or run the other way; also: potency is read from the fitted curve at half-maximal effect; the source files actives as falling curves though it sought activators and does not explain the sign; nearly all actives have a fitted effect of over 65% in size; many hits overshoot -100%
Target sequence (P80244 whole entry, looked up): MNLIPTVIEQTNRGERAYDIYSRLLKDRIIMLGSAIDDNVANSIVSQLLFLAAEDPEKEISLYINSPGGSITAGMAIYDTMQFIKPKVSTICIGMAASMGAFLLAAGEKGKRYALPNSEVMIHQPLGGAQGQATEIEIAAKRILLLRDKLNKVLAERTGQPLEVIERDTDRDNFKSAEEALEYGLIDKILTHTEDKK
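ClpP 10 microg/mL final, pH 8 Tris/KCl buffer with BSA, glycerol, Tween-20; compound pinned in; FRET-FV substrate; RT 20 min; Ex320/Em430; ΔFRET vs ADEP 5.8 microM, DMSO, no enzyme.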
Sfp PPTase inh: inhibitors of Bacillus subtilis Sfp phosphopantetheinyl transferase | Potency, µM, for inactives: max response, negative = inhibition, most hits filed as inhibitors | Biochemical Sfp PPTase activity, qHTS | 310,000 tested, 3.5% active; active = well fitted inhibition curve with a large enough effect; inconclusive = small, poorly fitted or top-dose-only effect, or another doubt; inactive = no such curve, though single readings can be large or run the other way;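 also: the enzyme is Sfp with the accession as filed and its product quenches rhodamine fluorescence; potency is read from the fitted curve at half-maximal effect; 0% = enzyme reaction without inhibitor and -100% = no enzyme wells; top concentration of the series not given in the record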
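Step 1, compound plus 15 nM Sfp-PPTase, 15 min, room temperature. Step 2, add rhodamine-CoA (5 uM) and BHQ-2-YbbR (12.5 uM). Step 3, read 525/598 nm fluorescence at 0 and 30 min.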
TRPV1 potentiator: potentiators of human vanilloid receptor 1 (TRPV1). potentiation, % at 8.33 µM. 320,000 tested, 0.02% active. TRPV1-expressing cells, Fluo-8 calcium influx, capsaicin EC20 potentiation; host cell line not named in the record; control for the full effect not named in the record. Q8NER1; active means potentiation above 80%; inconclusive means 30% to 80%; inactive means below 30%; also: 0% is about no effect
Target sequence (Q8NER1 whole entry, looked up): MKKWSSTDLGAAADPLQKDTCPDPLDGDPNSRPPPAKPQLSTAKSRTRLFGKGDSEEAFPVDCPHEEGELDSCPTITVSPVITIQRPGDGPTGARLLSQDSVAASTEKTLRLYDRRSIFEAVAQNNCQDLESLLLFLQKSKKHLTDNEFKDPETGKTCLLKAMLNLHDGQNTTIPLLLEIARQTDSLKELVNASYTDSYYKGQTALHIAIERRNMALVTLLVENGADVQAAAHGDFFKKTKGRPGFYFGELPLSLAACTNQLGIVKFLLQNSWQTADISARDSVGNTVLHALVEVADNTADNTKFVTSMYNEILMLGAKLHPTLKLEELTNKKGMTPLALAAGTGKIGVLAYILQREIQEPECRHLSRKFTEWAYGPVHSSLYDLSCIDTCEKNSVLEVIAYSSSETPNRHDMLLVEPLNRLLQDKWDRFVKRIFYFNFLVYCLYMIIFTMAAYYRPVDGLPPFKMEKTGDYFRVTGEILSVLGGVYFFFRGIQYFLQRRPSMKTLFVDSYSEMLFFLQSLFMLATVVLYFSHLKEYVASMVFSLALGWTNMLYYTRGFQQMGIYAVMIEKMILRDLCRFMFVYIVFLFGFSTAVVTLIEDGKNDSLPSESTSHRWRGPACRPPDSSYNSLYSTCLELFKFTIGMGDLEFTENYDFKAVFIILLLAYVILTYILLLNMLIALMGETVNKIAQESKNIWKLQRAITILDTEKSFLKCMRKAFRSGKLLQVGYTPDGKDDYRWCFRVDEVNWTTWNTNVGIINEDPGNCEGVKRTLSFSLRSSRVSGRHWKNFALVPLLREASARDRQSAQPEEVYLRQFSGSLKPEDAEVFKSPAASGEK
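TRPV1-expressing cells were cultured overnight at 35.5C and loaded with Fluo-8 calcium dye for 40 to 90 min at room temperature. After a 10 s baseline, compound was added and calcium influx was read kinetically for 3 min (ex 480/em 520 nm).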
Active calls of the source: *; u = inconclusive; x = not tested or not shown. Only part of the results is shown. The share of hits here may be higher or lower than overall.

SMILES	ClpP mod	Sfp PPTase inh	TRPV1 potentiator
O=c1c2c(-c3ccccc3)csc2ncn1/N=C/c1cn(-c2ccccc2)nc1-c1cccs1	x	x	3
O=C(O)c1cccc(-c2noc(-c3cccc(Cl)c3)n2)c1	x	x	-8
CC1(C)O[C@@H]2[C@H](O1)[C@@H](COS(=O)(=O)O)O[C@H]2n1cnc2c(N)ncnc21	x	x	-12
Cn1nnnc1Sc1ncnc2scc(-c3ccc(Cl)cc3)c12	x	x	-2
Oc1ccccc1C1C=C(c2ccc3c(c2)OCO3)NC(c2cccc(F)c2)N1 (centres undefined)	x	x	-13
COC(=O)C(=O)Nc1cccc2cccnc12	x	x	-16
Fc1cc(F)cc(Nc2nc(Cl)nc(NC3CCCC3)n2)c1	x	x	-25
CC(C)[C@@]1(c2ccc(Cl)cc2)ON(c2ccccc2C(F)(F)F)C1=O	x	x	-13
CC(=O)NC(C)c1cc(Cl)c2ccccc2c1O (centres undefined)	x	x	12
CC(=O)NC(c1cc(Cl)c2cccnc2c1O)C(C)C (centres undefined)	x	x	3
CC(=O)NC(c1cc(F)c2cccnc2c1O)C1CC1 (centres undefined)	x	x	-4
CC(=O)N1CCN(c2ccc(NCc3ccc(Br)o3)cc2)CC1	x	x	9
O=C(Nc1cccc2cccnc12)OCc1ccccc1	x	x	9
COc1ccc(OC)c2sc(N(CCCN(C)C)C(=O)c3ccc(S(=O)(=O)N4CCc5ccccc5C4)cc3)nc12	x	x	-6
CCOc1ccc(NC(=O)c2cccc(-n3cccc3)c2)cc1S(=O)(=O)N1CCOCC1	x	x	u
Oc1ccc(Br)cc1C1C=C(c2ccc3c(c2)OCO3)NC(c2c(F)cccc2Cl)N1 (centres undefined)	x	x	21
O=C(NCc1ccccc1Br)c1cccc2c1C(=O)c1ccc(N3CCOCC3)cc1S2(=O)=O	x	x	-5
CC(C)[C@@]1(c2ccccc2)ON(c2ccccc2C(F)(F)F)C1=O	x	x	-8
O=C1NC(Cc2ccccc2)c2nc3ccc(Cl)cc3c(=O)n2-c2ccc(Cl)cc21 (centres undefined)	x	x	0
CCC(C)NC(=O)CSc1nc2cc3c(cc2c(=O)n1Cc1ccc(C(=O)NCCc2ccc(OC)c(OC)c2)cc1)OCO3 (centres undefined)	x	x	12
COc1cc([N+](=O)[O-])c2ncccc2c1	x	x	-6
Cc1sc2ncn(/N=C/c3cn(-c4ccccc4)nc3-c3ccccc3)c(=O)c2c1C	x	x	-3
NC(=O)c1ccc(-c2noc(-c3cccc(Cl)c3)n2)cc1	x	x	8
Cn1nnnc1Sc1ncnc2scc(-c3cccc(F)c3)c12	x	x	-5
O=S(=O)(Nc1cccc2ccccc12)c1ccc2ccccc2c1	x	x	13
Oc1ccc(Cl)cc1C1C=C(c2ccc3c(c2)OCO3)NC(c2cc(Br)ccc2F)N1 (centres undefined)	x	x	-13
NS(=O)(=O)Nc1cccc2cccnc12	x	x	2
C#CCOCCOCCOCCNc1nc(N2CCN(C(=O)CCCCCCCCCCNC(=O)[C@H](CO)n3cc(CCCSC)nn3)CC2)nc(N2CCN(C(=O)CCCCCCCCCCNC(=O)[C@H](CCCCN)n3cc(C[C@@H](C)CC)nn3)CC2)n1	x	x	-6
Cn1nnnc1Sc1ncnc2scc(-c3ccccc3C(F)(F)F)c12	x	x	-15
O=S1(=O)Nc2c(cc(Cl)c3ccc(Cl)nc23)-c2ccccc21	x	x	-11
O=C1c2ccccc2C(=O)C1(O)O	x	x	-5
COc1cc(OC)c(C(=O)N(Cc2ccco2)Cc2cccs2)cc1OC	x	x	10
CC(OC(=O)/C(C#N)=C/c1ccc(N(C)C)cc1)C(=O)NCc1ccco1 (centres undefined)	x	x	-6
CN(C)S(=O)(=O)c1ccc2c(c1)C(=O)c1cc(S(=O)(=O)N(C)C)ccc1CC2	x	x	4
O=C1CC(c2ccco2)CC2=C1C(c1ccc(O)cc1)n1nc(C(F)(F)F)nc1N2 (centres undefined)	x	x	12
Cc1nnc(NC(=O)c2cc(-c3ccco3)nc3ccccc23)s1	x	x	-1
Cc1ccc2c(c1)-n1c(nc3cc(F)ccc3c1=O)C(Cc1ccccc1)NC2=O (centres undefined)	x	x	-2
O=S(=O)(Nc1cc(Br)cc2cccnc12)c1cccc2ccccc12	x	x	9
O=C(c1c(F)cccc1F)N1CCN(S(=O)(=O)c2ccc3c(c2)OCCO3)CC1	x	x	0
CC(=O)N1CCN(c2ccc(N)cc2)CC1	x	x	1
Cc1ccc2c(c1)c1c(n2CCc2ccc(C)nc2)CCN(C)C1	x	x	-16
Cc1cc(C)c2sc(N(CCCN(C)C)C(=O)c3ccc(S(=O)(=O)N4CCc5ccccc5C4)cc3)nc2c1	x	x	13
CCC(=O)NC(c1ccco1)c1cc(Cl)c2ccccc2c1O (centres undefined)	x	x	22
O=C(Nc1cccc2cccnc12)C(F)(F)F	x	x	13
O=C1CC(c2ccco2)CC2=C1C(c1ccncc1)n1nc(C(F)(F)F)nc1N2 (centres undefined)	x	x	12
Cc1cnc2c3c(cc(Cl)c2c1)-c1ccccc1S(=O)(=O)N3	x	x	-6
Cn1nnnc1Sc1ncnc2scc(-c3cccs3)c12	x	x	-6
COc1ccc(S(=O)(=O)Nc2cccc3cccnc23)c([N+](=O)[O-])c1	x	x	9
CC(=O)NC(c1ccco1)c1cc(F)c2cccnc2c1O (centres undefined)	x	x	0
CN(C)c1ccc(C(CNC(=O)c2ccc(-c3ccccc3)cc2)N2CCOCC2)cc1 (centres undefined)	x	x	-5
Cc1cccc(-c2ccc3ncnc(NCc4cccs4)c3c2)c1	x	x	-7
O=C(Nc1cccc2cccnc12)OC(Cl)(Cl)Cl	x	x	-10
CCn1cc(C(=O)NC2CCCc3c2cnn3-c2cccc(C)c2C)cn1 (centres undefined)	x	8%	-9
COc1ccc(NC(=O)CN2C(=O)S/C(=C/c3cccn3-c3ccc(C(=O)O)cc3)C2=O)cc1	x	-5%	-14
COc1ccc(NC2CCCN(C(=O)CCCn3cncn3)C2)cc1 (centres undefined)	x	0%	15
CC(OC(=O)c1ccc(NC(=O)CC#N)cc1)C(=O)Nc1ccc(Oc2ccccc2)cc1 (centres undefined)	x	9%	16
O=C(/C=C/c1ccc2c(c1)OCO2)Nc1nc(-c2ccc(F)cc2F)cs1	x	-6%	29
O=C1N=C(N2CCCC2)S/C1=C\c1cn[nH]c1-c1ccccc1	x	4%	-16
Cc1cc(Cl)c(OCCCCNC(C)(C)C)c(Br)c1	x	-21%	5
O=C(c1cc(-c2ccncc2)nc2c(Cl)cccc12)N1CCN(c2ccccc2F)CC1	x	-10%	7

Sorted by formula weight (largest number first): three of the compounds above
SMILES	ClpP mod	Sfp PPTase inh	TRPV1 potentiator
Cn1nnnc1Sc1ncnc2scc(-c3ccc(Cl)cc3)c12	x	x	-2
COc1ccc(S(=O)(=O)Nc2cccc3cccnc23)c([N+](=O)[O-])c1	x	x	9
O=S1(=O)Nc2c(cc(Cl)c3ccc(Cl)nc23)-c2ccccc21	x	x	-11

Further records
SMILES	ClpP mod	Sfp PPTase inh	TRPV1 potentiator
O=C(CN1C(=O)S/C(=C\c2ccc(-c3cc(C(=O)O)ccc3Cl)o2)C1=O)Nc1ccc2c(c1)OCO2	x	-3%	-17
COc1ccc(C2Nc3ccc4ccccc4c3-c3c2c(=O)oc2ccccc32)cc1 (centres undefined)	x	-4%	17
CCCOc1ccc(/C=N/NC(=O)c2c(-c3ccccc3)noc2C)cc1OC	x	1%	-23
Cc1nn(C)c(C(=O)Nc2cccc(Nc3ccccc3)c2)c1[N+](=O)[O-]	x	-8%	20
Cc1ccc(/C=C2\SC(=S)N(CC(=O)Nc3ncc(Cc4ccccc4Cl)s3)C2=O)cc1	x	8%	3
O=C(NC(=S)NCc1ccccc1)c1ccc(Br)o1	x	-4%	-11
CCc1noc(C)c1C(=O)NC1CC(C)(C)Cc2c1cnn2-c1ccccc1 (centres undefined)	x	12%	-6
O=C(Oc1ccc2cc(Br)ccc2c1)N1CCCCCC1	x	2%	21
O=C(C1=C(O)C(=O)N(CCCn2ccnc2)C1c1ccc(F)cc1)c1ccco1 (centres undefined)	x	20%	-17
COc1ccccc1OCC(=O)N/N=C/c1c(O)ccc2ccccc12	x	12%	27
CCn1nc(C)cc1C(=O)N1CCCC(N2CCN(c3cccc(Cl)c3)CC2)C1 (centres undefined)	x	10%	-4
CCOC(=O)CCc1c(C)c2ccc(OCc3cc([N+](=O)[O-])ccc3OC)c(C)c2oc1=O	x	-7%	-18
CCC(=O)NCCNc1ccc([N+](=O)[O-])cn1	x	9%	0
CN(C)CCCN(C(=O)c1ccc2c(c1)OCCO2)c1nc2ccc(Cl)cc2s1	x	-6%	4
Cc1cc(C(=O)O)ccc1-c1ccc(/C=C2\SC(=O)N(CC(=O)Nc3ccc4c(c3)OCO4)C2=O)o1	x	50µM*	27
COc1ccc(N(C(=O)c2ccncc2)S(=O)(=O)c2ccc(F)cc2)cc1	x	17%	-14
CCCCOc1ccc(C(=O)Nc2ccc(S(=O)(=O)Nc3onc(C)c3C)cc2)cc1	x	24%	5
O=C(NC(=S)N1CCN(c2ccccc2)CC1)c1ccccc1	x	-1%	-28
COc1ccc(N2CCN(c3oc(/C=C/c4ccc(F)cc4)nc3C#N)CC2)cc1	-2.0%	x	x
CCc1sc(-c2cc3cccc(OC)c3oc2=O)nc1-c1ccccc1	14µM*	x	x

One compound at a time, as listed above. Values in the order: ClpP mod, Sfp PPTase inh, TRPV1 potentiator
Listed for Cc1nn(C)c(C(=O)Nc2cccc(Nc3ccccc3)c2)c1[N+](=O)[O-] : x, -8%, 20
Listed for O=C(CN1C(=O)S/C(=C\c2ccc(-c3cc(C(=O)O)ccc3Cl)o2)C1=O)Nc1ccc2c(c1)OCO2 : x, -3%, -17

Taken from above.
In TRPV1 potentiator, `O=C(Oc1ccc2cc(Br)ccc2c1)N1CCCCCC1` reads 21
In ClpP mod, `COc1ccc(N2CCN(c3oc(/C=C/c4ccc(F)cc4)nc3C#N)CC2)cc1` reads -2.0%
In ClpP mod, `CCc1sc(-c2cc3cccc(OC)c3oc2=O)nc1-c1ccccc1` reads 14µM*
In TRPV1 potentiator, `Cc1cc(C(=O)O)ccc1-c1ccc(/C=C2\SC(=O)N(CC(=O)Nc3ccc4c(c3)OCO4)C2=O)o1` reads 27
In Sfp PPTase inh, `CCc1noc(C)c1C(=O)NC1CC(C)(C)Cc2c1cnn2-c1ccccc1` (centres undefined) reads 12%

Additional entries
SMILES	ClpP mod	Sfp PPTase inh	TRPV1 potentiator
CC(Nc1ccc(-c2nc(-c3cccnc3)no2)cc1[N+](=O)[O-])c1ccccc1 (centres undefined)	0.0%	x	x
CSc1ccc(CCNS(=O)(=O)c2cc(-c3cc(C)no3)ccc2C)cc1	1.3%	x	x
O=C(NC1CCCCC1)C(c1ccc(C(F)(F)F)cc1)n1c(=O)c(-c2cc3ccccc3[nH]2)nc2ccccc21 (centres undefined)	32%	x	x
CCOc1ccc(NC(=O)N(C)CCc2c(C)nn(C)c2C)cc1	-0.1%	x	x
Cc1c2cnn(-c3ccccc3)c(=O)c2c(C)n1C(C)C(=O)Nc1ccc(Br)cc1F (centres undefined)	-2.4%	x	x
CCc1cc(C(=O)Nc2sc(C)c(CC)c2C#N)no1	0.5%	x	x
CCCCCOC(=O)CSc1nc2sc3c(c2c(=O)n1Cc1ccccc1)CC(C)(C)OC3	-6.9%	x	x
COc1ccc(-c2nc3scc(CCNC(=O)c4cccc(Br)c4)n3n2)cc1	1.8%	x	x
CCc1cnc2c(c1SCC(=O)c1ccc(Cl)cc1)c(=O)n(C)c(=O)n2C	-0.9%	x	x
Cc1ccn2c(NC(=O)c3cccc(Cl)c3)c(-c3ccccc3)nc2c1	-3.7%	x	x
O=C(Cn1ncn2nc(-c3cccs3)cc2c1=O)NCc1cccc(Br)c1	-17%	x	x
Cc1ccn2c(Nc3ccc4c(c3)OCCO4)c(-c3ccc(Cl)s3)nc2c1	25µM*	x	x
Cc1ccc(CN2[C@H]3CCCC[C@@H]3OCCS2(=O)=O)cc1	-1.9%	x	x
CC(=O)Nc1nonc1-c1nnc(SCC(=O)Nc2cccc(C)c2C)n1-c1ccccc1	-0.6%	x	x
CCC(=O)N1c2ccccc2CC1C(=O)NCCCN1CCN(c2cc(C)ccc2C)CC1 (centres undefined)	2.6%	x	x
COCCNC(=O)CSc1nc2ccccc2nc1Cc1ccc(C)cc1	-1.8%	x	x
O=c1[nH]c(=S)c2n[nH]nc2[nH]1	-1.6%	x	x
CCCCOc1ccc(C(=O)NCCS(=O)(=O)N2CCN(c3ccccc3OC)CC2)cc1	-0.6%	x	x
CCOc1ccc(NC(=O)/C=C\C(=O)N(c2ccc(C(C)C)cc2)C(C(=O)NCc2ccco2)c2ccc(F)cc2)cc1 (centres undefined)	-0.1%	x	x
CSc1ccc(CCNC(=O)CCc2c(C)nc3ncnn3c2C)cc1	-0.3%	x	x
